Source: PubChem (National Center for Advancing Translational Sciences (NCATS))
Bst PK mod: pyruvate kinase (B. stearothermophilus) modulation. Potency, µM. partly purified Bacillus stearothermophilus pyruvate kinase, luminescence ATP production; ribose 5-phosphate activator present at AC10. actives 1.2% (n = 51,000). AID 361; in the data active means potency below about 11 µM; inconclusive means mostly about 12 µM to 25 µM; inactive means weaker than that;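 the screen sought inhibitors and activators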;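 also: potency is read from the fitted curve at half-maximal effect; scaled between full activation by ribose 5 phosphate and full inhibition by luteolin; about four in five hits inhibit and the cells do not say which; series up to 57 µM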
YjeE inh: YjeE (TsaE) inhibition, E. coli | purified YjeE, fluorescence polarisation of a bound ADP probe | Potency, µM | actives 0.05% (n = 71,000) | AID 605; active = well fitted falling curve; inconclusive = weaker or top-dose-only fall, or a rising curve; inactive = flat or poorly fitted curve;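 also: top concentration of the series not given in the record; excess ADP was the control for the full effect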
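Purified YjeE (10 uM) with BODIPY Texas Red-labeled ADP probe (2 uM); compounds pin-transferred, 15 min at room temperature. Binding inhibition read as decreased fluorescence polarization; ADP titration as control.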
Starred values were filed as active, the others as inactive; i = inactive; ? = inconclusive; . = not tested or not shown; & = joins results of further samples. Not all compounds are listed, so the mix of outcomes need not match the whole.

nr	smiles	Bst PK mod	YjeE inh
1	COc1ccc(C(=O)CSc2nnc(CNc3ccc(C)cc3C)n2Cc2ccco2)cc1	>57	i
2	O=C(CN1CCC(n2nnc3cc(F)ccc32)CC1)N1CCCc2ccccc21	>57	i
3	CCOC(=O)C1CCN(C(=O)CNS(=O)(=O)c2ccc(Br)s2)CC1	>57	i
4	CC1CCc2c(C(=O)Oc3cccc(-n4cnnn4)c3)csc2C1 (stereo not drawn)	>57	i
5	Cc1nnc(NC(=O)CSc2nnc(Cc3cccn3C)n2CCc2ccccc2)s1	>57	i
6	O=C(CCc1nc2ccccc2[nH]1)Nc1ccc2c(c1)OCO2	>57	i
7	COC(=O)c1ccc(OCC(O)Cn2nnc3ccccc32)cc1 (stereo not drawn)	>57	i
8	CC(=O)c1cccc(NC(=O)Cn2cc3c(n2)CCCC3)c1	.	i
9	O=C(Nc1ccc(-n2nncc2-c2ccco2)cc1)c1cccc(F)c1	>57	i
10	COc1ccc(Cl)cc1NC(=O)CN(c1ccccc1)S(=O)(=O)N(C)C	>57	i
11	Cc1csc(SCC(=O)N2CCN(S(=O)(=O)c3ccc(Cl)cc3)CC2)n1	>57	i
12	CCC(C)NC(=O)C1c2cc(OC)c(OC)cc2C(=O)N(C)C1c1ccc(OC)cc1 (stereo not drawn)	>57	i
13	CC1(C)Cc2c(c(N3CCCC3)nc3sc4c(N5CCN(CCO)CC5)ncnc4c23)CO1	>57	i
14	Cc1ccc(NC(=O)c2cnccn2)c(OC(F)F)c1	>57	i
15	CC1(C)Oc2ccc(C(=O)N3CCCC3)cc2N(CC(=O)NCc2ccccc2)C1=O	>57	i
16	O=C(Nc1ccccc1C(F)(F)F)N1CCC(N2CCCCC2)CC1	>57	i
17	CCc1noc(C)c1C(=O)N1CC(C)OC(C)C1 (stereo not drawn)	>57	i
18	CC(=O)Nc1nc2ccccc2n1CCN1CCOCC1	>57	i
19	C=CCn1c(CNC(=O)c2ccccc2C)nnc1SCC(=O)NC1CCCC1	>57	i
20	CCOC(=O)Cn1nnnc1C(CC)N(Cc1cccs1)Cc1cc2ccc(OC)cc2[nH]c1=O (stereo not drawn)	>57	i
21	O=C(Cn1cc2c(n1)CCCC2)NCCCN1CCN(c2ccccc2F)CC1	.	i
22	CC(=O)C1C(c2ccc(F)c(F)c2)NC(=O)NC1(O)C(F)(F)F (stereo not drawn)	>57	i
23	O=C(CCSc1ccccc1)NC1CCCC1	.	i
24	O=C(CCCc1nc(-c2ccc(Cl)cc2)no1)Nc1cccnc1	>57	i
25	COc1ccccc1Nc1nc(C)cc(C)c1C(N)=O	>57	i

5 compounds out of the list, arranged by molar mass, smallest number first.
nr	smiles	Bst PK mod	YjeE inh
23	O=C(CCSc1ccccc1)NC1CCCC1	.	i
17	CCc1noc(C)c1C(=O)N1CC(C)OC(C)C1 (stereo not drawn)	>57	i
14	Cc1ccc(NC(=O)c2cnccn2)c(OC(F)F)c1	>57	i
7	COC(=O)c1ccc(OCC(O)Cn2nnc3ccccc32)cc1 (stereo not drawn)	>57	i
22	CC(=O)C1C(c2ccc(F)c(F)c2)NC(=O)NC1(O)C(F)(F)F (stereo not drawn)	>57	i

(cont.)
nr	smiles	Bst PK mod	YjeE inh
26	O=C(Cn1ccsc1=NC(=O)c1ccco1)c1ccccc1	>57	i
27	C=CC1=C(C)C2=Cc3c(C=C)c(C)c4[n]3[Sn+2][n]3c(c(C)c(CCC(=O)O)c3=CC3=NC(=C4)C(C)=C3CCC(=O)O)=CC1=N2	.	79µM*
28	COc1ccc(NCc2cc3ccccc3[nH]c2=O)cc1	>26	.
29	COc1ccc(NC(=O)CC2SC(=Nc3ccccc3)NC2=O)c(OC)c1 (stereo not drawn)	.	i
30	CN1C[C@H](C(=O)N[C@]2(C)O[C@@]3(O)[C@H]4CCCN4C(=O)[C@H](Cc4ccccc4)N3C2=O)C[C@H]2c3cccc4[nH]cc(c34)C[C@@H]21	.	i
31	Cc1ccc(-n2c(SCC(=O)OC(C)C)nnc2-c2ccccn2)cc1	>57	i
32	CN1CC(=O)N(CC(=O)Nc2ccc(F)cc2)c2ccccc2C1=O	>57	i
33	N#Cc1ccccc1OC[C@H](O)CNCCNC(=O)Nc1ccccc1	.	i
34	COc1ccccc1CN1CC2(CCN(S(=O)(=O)c3ccccc3)CC2)C1	.	i
35	CCOC(=O)N1CCC(NC(=O)Cn2c3ccccc3c3cn[nH]c(=O)c32)CC1	>57	i
36	CCC(C)[C@H](NC(=O)NCC1CCCO1)C(=O)OC (stereo partly drawn)	>57	i
37	CCN(CC)CCCN1C(=O)C(=O)/C(=C(/O)c2ccc3c(c2)OCCO3)C1c1ccco1 (stereo not drawn)	>57	i
38	Cc1ccc2c(c1)c(C)c(C)n2CC(O)CN1CCOCC1 (stereo not drawn)	>57	i
39	CC(=O)N[C@@H](CC(C)C)C(=O)O	.	i
40	CCCc1ccc(OCc2ccc(C(=O)N3CCN(c4ccccn4)CC3)o2)c(OC)c1	>57	i
41	Cc1ccc(NC(=O)CSc2n[nH]c(-c3ccncc3)n2)cc1C	>57&>57	i
42	CC1CCN(C(=O)CSc2nnc(CSc3ncccn3)n2C)CC1	>57	i
43	COc1ccc(S(=O)(=O)N(CCCN2CCOCC2)Cc2ccc(OC)c(OC)c2)cc1	>57	i
44	Cc1ccccc1NC(=O)CC1SCCNC1=O (stereo not drawn)	>57	i
45	Cc1ccc(C)c(NC(=O)CS(=O)(=O)c2cn(C)c3ccccc23)c1	>57	i
46	Cn1c(=O)n(CC(=O)OCc2ccccc2)c(=O)c2c1nc1n2CCCN1C1CCCCC1	>57	i
47	CCCCn1c(CN2CCN(c3cccc(Cl)c3)CC2)nc2c1c(=O)[nH]c(=O)n2C	>57	i
48	CC1(C)Cc2ccccc2-c2nnc(-c3cccc(O)c3)n21	>57	i
49	CC1(C)CC(=O)c2cnn(-c3nc4ccccc4[nH]3)c2C1	.	i
50	CN(CC(=O)NCCC1=CCCCC1)S(=O)(=O)c1ccc2c(c1)CCC(=O)N2	.	i
51	Cc1cc2n(n1)C(c1ccccc1)Nc1ccccc1-2 (stereo not drawn)	.	i
52	CCCc1cc(=O)[nH]c(SCC(=O)N2CCN(c3ccc(F)cc3)CC2)n1	>57	i
53	COc1ccc(NC(=O)c2oc3ccc(S(=O)(=O)N4CCC5(CC4)OCCO5)cc3c2C)cc1	>57	i
54	CC(C)c1nc(N2CCOCC2)c(C#N)c2c1CCC2	>26	.
55	Cc1cc(SCC(N)=O)nc(SCC(=O)c2ccccc2)n1	>57	i
56	CS(=O)(=O)N1CCCC(C(=O)NCCCN2CCc3ccccc3C2)C1 (stereo not drawn)	>57	i
57	Cc1nc2oc(C(=O)c3ccc(Br)cc3)c(N)c2c2c1COC(C)(C)C2	>11	.
58	Cc1ccc(NC(=O)COC(=O)CN2CSCC2=O)cc1C	>57	i
59	CN(C)S(=O)(=O)c1ccc(S(=O)(=O)N(CC(=O)Nc2ccccc2)CC2CCCO2)cc1 (stereo not drawn)	>57	i
60	Cn1c(=O)c2c(ncn2CCCc2ccccc2)n(C)c1=O	>57	i
61	CCOc1ccccc1-n1c(COc2ccccc2)nnc1SCC(N)=O	>57	i
62	COc1ccccc1C1CC(=O)Nc2cc3c(cc21)OCCO3 (stereo not drawn)	.	i
63	Cn1c(SCC(N)=O)nnc1C1CCN(C(=O)NCc2ccccc2)CC1	>57	i
64	COc1cccc(N2C(=O)CC(N3CCC(C(N)=O)(N4CCCCC4)CC3)C2=O)c1 (stereo not drawn)	>57	i
65	CC1(C)Cc2c(C#N)c(SCc3nc4ccccc4[nH]3)nc(N3CCOCC3)c2CO1	>11	.
66	COC(=O)[C@@H]1C[C@@]1(C)[C@@H](NC(=O)OCc1ccccc1)c1ccccc1	.	i
67	CC(=O)CCc1ccccc1	.	i
68	O=c1[nH]c(CN2CCC(c3nc4ccccc4s3)CC2)nc2sc3c(c12)CCC3	>57	i
69	COC(=O)[C@@]1(Cc2ccc(F)cc2)[C@H]2c3cc(C(=O)N4CCCC4)n(CCSCCO)c3C[C@H]2CN1C(=O)c1ccccc1	.	i
70	Cc1cccc(-c2c3c(=O)n(C)c(=O)n(C)c3cn2-c2ccc(O)cc2)c1	>57	i
71	CCC[C@H]1C[C@H](C(=O)N[C@H]([C@@H]2O[C@H](SC)[C@@H](O)[C@H](O)[C@@H]2O)[C@H](C)O)N(C)C1	.	i
72	O=C(OCC(=O)c1c[nH]c2ccccc12)c1ccco1	?	i
73	Cc1ccc(NC(=O)C2CCCN(S(=O)(=O)c3cnc[nH]3)C2)c(Br)c1 (stereo not drawn)	.	i
74	Cc1ccc(C)c(-n2c(CNC(=O)c3ccco3)nnc2SCC(=O)Nc2nnc(C)s2)c1	.	i
75	O=C(NCc1cccnc1)C1CCCCN1S(=O)(=O)c1ccc(F)cc1 (stereo not drawn)	>57	i

Going on with the list:
nr	smiles	Bst PK mod	YjeE inh
76	CCN(CC)C(=O)C1=C(C)Nc2nnnn2C1c1cccnc1 (stereo not drawn)	>57	i
77	O=C(NCCC1=CCCCC1)c1ccc(=O)oc1	>26	.
78	NC(=O)CSc1nnc(COc2ccccc2)n1C1CCCCC1	>57	i
79	COC(=O)C1CN(S(=O)(=O)c2ccc(C)cc2)CCN1S(=O)(=O)c1ccc(C)cc1 (stereo not drawn)	?	i
80	CCCCn1c(CN2CCN(C(=O)OCC)CC2)nc2c1c(=O)[nH]c(=O)n2C	>57	i
81	COC1CCCCC1NS(=O)(=O)c1ccccc1 (stereo not drawn)	>57	i
82	c1ccc(Cc2nnc3sc(-c4ccc5c(c4)OCCO5)nn23)cc1	.	i
83	Cn1c(=O)oc2cc(S(=O)(=O)NC3CCCCCCC3)ccc21	>57	i
84	Cc1cccc(NC(=O)C23CCC(C)(/C(=N/O)C2)C3(C)C)c1 (stereo not drawn)	>57	i
85	NC(N)=NC(N)=Nc1ccc(S(=O)(=O)O)cc1	.	i
86	Cc1ccc(-c2nnc(N3CCN(C(=O)CN4C(=O)c5ccccc5C4=O)CC3)c3ccccc23)cc1	>57	i
87	Cc1c(NC(=O)CSC2=C(C#N)C(c3ccccc3F)CC(=O)N2)c(=O)n(-c2ccccc2)n1C (stereo not drawn)	>57	i
88	Cc1nc2sc(C(=O)O)c(N)c2c2c1COC(C)(C)C2	>57	i
89	Cc1cc(NC(=O)CN2CCC(n3nnc4cc(C(F)(F)F)ccc43)CC2)no1	>57	i
90	Cc1nnc(SCCC(C)C)[nH]c1=O	.	i
91	O=C(c1ccc2snnc2c1)N1CCSCC1	.	i
92	COC(=O)C1(S(=O)(=O)C2(C(=O)OC)CCCC2)CCCC1	>57	i
93	O=C(On1c(-c2ccccc2)nc2ccccc2c1=O)c1ccco1	.	i
94	CCOC(=O)c1ccc(NC(=O)C2CCN(S(=O)(=O)CC)CC2)cc1	>57	i
95	CCO[Si](CCCN)(OCC)OCC	.	i
96	COc1ccc(-n2nc(C(=O)N3CCC(C#N)CC3)c3c4ccccc4n(C)c3c2=O)cc1	.	i
97	Cc1cc2ncn(C(=O)c3c(-c4ccccc4)noc3C)c2cc1C	.	i
98	CCOC(=O)N1CCN(C(=O)CN2C(=O)CC(C)(C)S(=O)(=O)c3ccccc32)CC1	>57	i
99	COc1cccc(-c2nc3n(n2)C(c2cccs2)C(C(=O)Nc2cccnc2)=C(C)N3)c1 (stereo not drawn)	.	i
100	COc1ccccc1-c1nnc(NC(=O)c2ccc(S(=O)(=O)N(C)C)cc2)o1	>57	i
101	COC(=O)c1[nH]c2ccc(C)cc2c1NS(=O)(=O)c1ccc(F)cc1	>57	i
102	COc1ccc(OC)c(C2=Nn3c(nnc3-c3cccc(OC(C)C)c3)SC2)c1	>57	i
103	CCOC(=O)C1=C(C)Nc2nc(C)nn2C1c1ccc(OCC)c(OC)c1 (stereo not drawn)	.	i
104	COc1ccc(NC(=O)N2CC[C@@]3(CCCN(C(=O)c4ccncc4)C3)C2)cc1	.	i
105	O=C(NCC1CCCO1)c1ccc(COc2ccc(F)cc2)o1 (stereo not drawn)	>57	i
106	CCN(C(=O)c1cccs1)c1nnc(-c2ccncc2)s1	.	i
107	O=C(Nc1ccc(Cl)cc1)NC1(C(=O)NCCCN2CCOCC2)CCCCC1	>57	i
108	COC(=O)CSc1nc2c(c(=O)n(C)c(=O)n2C)n1CCC(C)C	>26	.
109	O=C(O)C1C2C=CC(C2)C1C(=O)NCc1ccccn1 (stereo not drawn)	>57	i
110	O=S(=O)(NCCNS(=O)(=O)c1cccs1)c1cccs1	>57	i
111	O=C(CN1CCc2ccccc21)Nc1ccc2c(c1)OCO2	>57	i
112	CCCC(=O)c1cc(F)c(N2CCN(CCC#N)CC2)cc1C	.	i
113	CCCCCCn1c(C(C)O)nc2ccccc21 (stereo not drawn)	>26	.
114	CCOC(=O)CCn1nc(-c2ccccc2)cc1N	>57	i
115	CCOC(=O)c1cnc(-c2cccc(OC)c2)[nH]c1=O	>57	i
116	COc1ccc(CCn2c(=N)c(C(=O)N3CCN(C)CC3)cc3c(=O)n4ccccc4nc32)cc1	>57	i
117	O=C(Cc1cccs1)N1CCC(c2nc3c(nnn3Cc3ccc(F)cc3)c(=O)[nH]2)CC1	>57	i
118	Cc1cc2ncc(-c3ccc(Cl)cc3)c(N)n2n1	.	i
119	COc1ccc(F)cc1S(=O)(=O)Nc1ccc(C)cc1	>11	i
120	CC(C)NC1(C(N)=O)CCN(Cc2ccccc2)CC1	.	i
